YopH PTP inh = blocks Yersinia enterocolitica YopH tyrosine phosphatase; AID 898; inhibition, %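 (about 10 µM by stock and volumes)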; hit rate 0.16% among 140,000; fluorescence Ex485/Em525;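 active = inhibition of 50% or more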;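 note: controls were vehicle for no effect and minimum signal wells for full effect; inactives centre near -20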
Mtb growth = M. tuberculosis H37Rv growth inhibitors, H37Rv strain (AID 1626); hit rate 0.95% among 220,000; inhibition, % at 10 µM; hits with a dose series show IC50 in µM; M. tuberculosis H37Rv growth inhibition; higher % means a stronger effect;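 active = confirmed in a dose series; inconclusive = inhibition above 80% but not taken into the dose series; inactive = below 80% or under 30% at every dose of the series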;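 note: bacteria incubated seven days before Alamar blue readout; 0% = bacteria only wells and 100% = bacteria with antibiotic wells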
Mtb betalactam = beta-lactam sensitization of Mtb H37Rv; M. tuberculosis H37Rv growth with meropenem, percent inhibition; hits of this screen are not shown here; inhibition, % at 25 µM; AID 434955; hit rate 0.27% among 330,000;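 active = about 74% or more and at least 40 points above the plate without the antibiotic, then above 30% in a dose series; inconclusive = first-round hits that could not be retested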;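 note: growth measured after seven days incubation then overnight dye step; 0% = bacteria only wells and 100% = bacteria with antibiotic; twin plates without the antibiotic show which effects depend on it; some results filed as inactive read as strong as hits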
RecA splice inh = inhibitors of M. tuberculosis RecA intein splicing | P9WHJ3 | cell-free RecA intein splicing, fluorescence | inhibition, %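 (about 9 µM by stock and volumes)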 | hit rate 0.75% among 290,000 | AID 2221; in the data active = inhibition above about 30%; inconclusive = no clear call, values can overlap the other calls;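 note: 0% = vehicle wells and 100% = reference inhibitor control wells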
Target sequence (P9WHJ3 whole entry, looked up, canonical isoform): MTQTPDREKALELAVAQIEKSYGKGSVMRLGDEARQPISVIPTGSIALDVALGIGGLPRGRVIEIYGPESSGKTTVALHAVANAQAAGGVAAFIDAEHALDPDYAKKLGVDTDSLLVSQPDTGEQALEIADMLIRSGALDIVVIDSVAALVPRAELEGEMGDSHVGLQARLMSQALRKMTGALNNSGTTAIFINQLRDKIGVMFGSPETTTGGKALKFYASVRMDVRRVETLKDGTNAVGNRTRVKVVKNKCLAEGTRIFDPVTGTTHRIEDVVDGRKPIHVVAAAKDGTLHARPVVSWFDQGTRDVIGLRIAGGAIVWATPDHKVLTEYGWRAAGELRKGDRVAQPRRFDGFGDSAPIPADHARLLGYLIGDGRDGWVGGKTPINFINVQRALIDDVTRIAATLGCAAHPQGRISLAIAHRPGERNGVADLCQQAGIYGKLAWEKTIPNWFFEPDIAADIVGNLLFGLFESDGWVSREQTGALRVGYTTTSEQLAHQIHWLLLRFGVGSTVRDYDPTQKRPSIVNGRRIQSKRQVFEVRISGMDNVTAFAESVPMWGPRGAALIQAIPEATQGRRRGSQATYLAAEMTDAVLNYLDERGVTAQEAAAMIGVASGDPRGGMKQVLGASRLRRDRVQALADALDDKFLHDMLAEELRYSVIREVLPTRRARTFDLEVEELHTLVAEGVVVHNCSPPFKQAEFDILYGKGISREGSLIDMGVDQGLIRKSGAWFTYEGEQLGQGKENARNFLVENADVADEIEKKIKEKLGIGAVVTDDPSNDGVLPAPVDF
Arbovirus anti = arbovirus infection inhibition; arbovirus infection cell-based antiviral screen; inhibition, % at 10 µM; hit rate 0.37% among 200,000;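 active = inhibition from about 30%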;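 note: bluetongue infection of BSR cells; cell survival read as ATP light after 72 h; 0% = infected wells without compound and 100% = uninfected wells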
Arbovirus anti repeat = second read-out of Arbovirus anti, no call of its own (marks repeat the call); inhibition, %; measured here: 10K subset replicate screen; many hits read low in the repeat;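 first of two repeat runs on a subset; 0% = infected and 100% = uninfected wells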
Numbers without * were called inactive; ? = inconclusive; nt = not tested or not shown. A portion of the library, so the mix of outcomes need not match the whole.

SMILES	YopH PTP inh	Mtb growth	Mtb betalactam	RecA splice inh	Arbovirus anti	others
Cc1onc(-c2ccccc2Cl)c1C(=O)Oc1cc(N)n(S(=O)(=O)c2ccc(F)cc2)n1	-49	-11%	2	nt	14
Cc1sc2ncnc(N3CCN(CCOc4ccc(Cl)cc4)CC3)c2c1C	-4	49%	99	7.7	-20
CCN(CC)S(=O)(=O)c1cccc(C(=O)Nc2ccccc2)c1	-49	-3%	-6	nt	-9
N=C(N)N=Nc1c(O)[nH]c2ccc(Br)cc12	nt	10%	2	0.5	-9
COc1ccc(C(=O)C2CCCCC2=O)cc1 (stereo unspecified)	-18	-3%	-10	-1.4	0
O=C(Nc1ccc(S(=O)(=O)Nc2nccs2)cc1)C1=NN(c2ccccc2)C(=O)CC1	nt	5%	3	nt	nt
CCOC(=O)c1c(/N=C/c2ccccc2O)sc2c1CCC2	-22	-1%	0	-5.9	-2
NC(=O)CCCn1c(C(=O)c2cc(Cl)c(N)c(Cl)c2)c2ccc([N+](=O)[O-])cc2[n+]1[O-]	nt	nt	100	19	nt
CC(C)c1nc2sc3c(c2c(=O)[nH]1)CC(C)(C)OC3	nt	nt	-6	-1.6	nt
CCOc1ccc(C(C)NC(=O)c2cc(=O)[nH]c3ccccc23)cc1OCC (stereo unspecified)	nt	nt	2	-2.4	nt
O=C(NCC(=O)N(c1cccc(F)c1)C(C(=O)NC1CCCC1)c1cccnc1)c1cccs1 (stereo unspecified)	nt	1%	-9	-1.3	15
COc1ccc(C(C(=O)NC2CCCCC2)N(C(=O)c2ccccn2)c2cccnc2)c(OC)c1 (stereo unspecified)	nt	nt	4	3.7	nt
CN(C)C(=O)COc1ccc2c(-c3ccccc3)cc(=O)oc2c1	nt	nt	-8	0.6	nt
Nn1c(SCc2ccc(Br)cc2)nnc1-c1ccccn1	nt	-1%	-2	9.7	-3
COc1ccc(-c2c(NC(=O)c3ccco3)n(-c3ccc(C)cc3)nc(C)c2=O)cc1	nt	-2%	-6	0.8	nt
CCOC(=O)c1cccc(NC(=O)CN(C)S(=O)(=O)c2cnc[nH]2)c1	-46	-2%	-11	-0.8	-8
O=c1[nH]c(CCl)nc2cc(-c3ccc(Cl)cc3)sc12	-5	?	99	18	-39
CCCOc1ccc(NC(=O)C2CC(=O)N(C)C(=Nc3cccc(OC)c3)S2)cc1 (stereo unspecified)	nt	-3%	-6	-2.8	6
COc1ccc(C(=O)NC2CC2)cc1OC1CCN(Cc2ccccc2)CC1	nt	nt	4	-1.4	nt
CCCCCCC(C)NC(=S)Nc1cc(S(=O)(=O)N(C)C)ccc1C (stereo unspecified)	-33	1%	4	1.1	1
Cc1cc2c(cc1S(=O)(=O)NCc1ccccc1)n(C)c(=O)c(=O)n2C	nt	nt	-6	1.2	nt
C=CCn1c(SCC(=O)c2ccc(O)c(O)c2)nnc1-c1cccnc1	nt	-20%	-5	-9.7	nt
Cc1ccccc1C(=O)N1CCC(C(=O)Nc2nccs2)CC1	nt	3%	-6	-0.2	3
CS(=O)(=O)N(Cc1ccc(Cl)cc1)c1ccc(C(=O)N2CCN(c3ccccc3)CC2)cc1	-5	-3%	16	2.9	-13
CC(=O)Oc1ccc(C(=O)[C@H]2[C@H]3C(=O)N(c4ccccc4)C(=O)[C@H]3[C@@H]3C=CC=NN32)cc1	-9	-4%	-3	6.7	-7
Continued:
SMILES	YopH PTP inh	Mtb growth	Mtb betalactam	RecA splice inh	Arbovirus anti	others
CN1C(=O)/C(=C/c2ccc(O)c([N+](=O)[O-])c2)N(C)C1=S	nt	-10%	3	1.0	2
Cc1cnc(C(=O)OCC(=O)N=c2sccn2Cc2ccccc2Cl)cn1	nt	nt	-7	1.1	nt
COc1ccccc1OCCNC(=O)Cc1ccc(Cl)c(Cl)c1	nt	8%	-4	-1.6	5
O=C(OCCCOC(=O)c1ccc(Br)o1)c1ccc(Br)o1	nt	nt	86	-0.6	nt
NC(=O)C1CCN(C(=O)c2ccc(Oc3cc(Cl)cc(Cl)c3)o2)CC1	nt	4%	11	0.3	nt
Cc1cccc(C(=O)N=c2sccn2C)c1[N+](=O)[O-]	nt	nt	-4	1.0	nt
C#CCNC(=O)C1=C[C@H](c2ccc(Br)cc2)C[C@H](OCCCCO)O1	nt	3%	-7	6.5	0
CCOC(=O)c1ccc2c(c1)nc(SC/C(O)=C(\C#N)c1nc3ccccc3[nH]1)n2CC	-17	7%	3	-2.9	9
COc1ccc(CCNC(=O)C2CCCN(S(=O)(=O)c3ccccc3)C2)cc1 (stereo unspecified)	nt	nt	-17	-1.1	nt
Cc1cc2nc(-c3ccc(SCC(=O)Nc4ccc5c(c4)OCCO5)nc3)[nH]c2cc1C	9	25%	17	3.9	-9
Cc1ccc(C)n1-c1nn(S(=O)(=O)c2cccc3cccnc23)c2cccc(F)c12	nt	-6%	-10	3.3	nt
Cc1onc(-c2ccccc2)c1C(=O)Nc1cccnc1	-52	-2%	-8	1.6	1
CCCN1C(=O)/C(=N\OCC(=O)NCC(F)(F)F)c2ccccc21	-18	-13%	5	1.3	-4
CCOc1ccc(/C(O)=C2/C(=O)C(=O)N(c3ncccn3)C2c2ccccc2)cc1 (stereo unspecified)	-41	-9%	0	-0.9	6
Cc1ccc(N2CC(C(=O)Nc3nccs3)CC2=O)cc1 (stereo unspecified)	-20	0%	-7	1.1	10
Cc1cc(C)nc(-n2nc(C)cc2NC(=O)CN2CCc3ccccc3C2)n1	-29	-3%	73	5.9	-13
Cc1cc(C)n(CC2CC(=O)N(c3ccc(Cl)c(Cl)c3)C2=O)n1 (stereo unspecified)	-28	-4%	-5	-0.5	9
Cc1ccccc1NC(=O)/C(=C/c1ccccc1)c1ccccc1	-36	9%	30	16	-9
CCN(CC)CCNC(=O)c1ccc(NC(=O)C2CCN(c3ncnc4sc(C)c(C)c34)CC2)cc1	nt	nt	-10	3.7	nt
COC(=O)Nc1ccc(S(=O)(=O)NCCO)cc1	5	-2%	-7	0.1	3
Cc1csc(=O)n1CCC(=O)OCC(=O)NNC(=O)c1ccccc1	nt	nt	-8	-2.4	nt
CCc1nnc(NC(=O)CSc2nnc(-c3ccc(S(=O)(=O)N4CCCC4)cc3)n2CC)s1	-4	-12%	-1	4.5	13
O=S(=O)(c1ccc(NC(=S)NCc2ccco2)cc1)N1CCCC1	-12	4%	75	0.1	4
COc1ccc(OC)c(NC(=O)C2C(C(=O)O)C3(Cl)C(Cl)=C(Cl)C2(Cl)C3(Cl)Cl)c1 (stereo unspecified)	nt	-5%	0	6.5	0
CC(C)CCN1CCC(n2nccc2NC(=O)c2ccc3c(c2)OCO3)CC1	nt	nt	5	-3.5	nt

Structural class: the entries above containing an aryl thioether with sulfur outside any ring (5)
SMILES	YopH PTP inh	Mtb growth	Mtb betalactam	RecA splice inh	Arbovirus anti	others
Nn1c(SCc2ccc(Br)cc2)nnc1-c1ccccn1	nt	-1%	-2	9.7	-3
C=CCn1c(SCC(=O)c2ccc(O)c(O)c2)nnc1-c1cccnc1	nt	-20%	-5	-9.7	nt
CCOC(=O)c1ccc2c(c1)nc(SC/C(O)=C(\C#N)c1nc3ccccc3[nH]1)n2CC	-17	7%	3	-2.9	9
Cc1cc2nc(-c3ccc(SCC(=O)Nc4ccc5c(c4)OCCO5)nc3)[nH]c2cc1C	9	25%	17	3.9	-9
CCc1nnc(NC(=O)CSc2nnc(-c3ccc(S(=O)(=O)N4CCCC4)cc3)n2CC)s1	-4	-12%	-1	4.5	13

Later entries
SMILES	YopH PTP inh	Mtb growth	Mtb betalactam	RecA splice inh	Arbovirus anti	others
Cc1ccc(CNC(=O)CSc2ncc(C(=O)Nc3ccccc3)c(=O)n2C)cc1	nt	nt	2	0.5	nt
Cc1cccc(N2CCN(C(=O)CCNS(=O)(=O)c3ccc4c(c3)oc(=O)n4C)CC2)c1C	nt	nt	2	-2.5	nt
O=C(NC(=S)NNC(=O)c1ccccc1[N+](=O)[O-])c1ccc(Br)cc1	nt	nt	2	11	nt
Cc1cccc(C)c1NC(=O)COC(=O)c1cc(-c2cccnc2)nc2ccccc12	-15	5%	0	0.1	3
C/C(=N\NC(=O)c1cc(-c2ccc(O)cc2)nc2ccccc12)c1cccnc1	nt	nt	4	0.9	nt
Cc1cc2nc(CSc3ccc(Cl)cc3)cc(=O)n2[nH]1	nt	0%	0	4.7	-1
CC1N=C(N)C(c2nc3ccccc3n2C)=C1O (stereo unspecified)	nt	4%	2	-1.1	-3
O=C(N/N=C/c1sc(N2CCOCC2)nc1-c1ccccc1)c1cccc(S(=O)(=O)N2CCCC2)c1	nt	8%	10	-38	-20
Cc1ccc(S(=O)(=O)NN=C2C3CC4CC(C3)CC2C4)cc1[N+](=O)[O-]	-16	-5%	10	-3.2	-9
CC(=O)N1CCc2c(sc(NC(=O)CN3C(=O)CCC3=O)c2C(N)=O)C1	23	-5%	-5	-0.8	-3	Arbovirus anti repeat=-5
Nc1c(C(=O)NCc2ccco2)c2nc3ccccc3nc2n1Cc1ccc(F)cc1	-2	23%	-3	-108	-7
COc1ccc(-c2nc(Cn3c(SCc4ccccc4F)nc4ccncc43)c(C)o2)cc1	-27	-4%	-8	0.5	-17
S=C1NCCOCCOCCOCCN1	6	-3%	-2	0.3	1
Cc1ccc(C(=O)N/N=C\c2ccncc2)s1	nt	nt	2	-3.8	nt
CCc1ccc(-c2nc(CSCC(=O)NCc3ccco3)c(C)o2)cc1	nt	8%	nt	6.7	3
COC(=O)c1ccc2nc(C)cc(Nc3ccc(N(C)C)cc3)c2c1	-5	nt	93	0.5	-3
O=C(CSc1nnc(COc2ccc3c(c2)CCCC3)o1)Nc1ccc(F)cc1	-20	40%	-1	-2.5	-3
C=C(C)CSc1nc2nc(C)c(Br)cc2[nH]1	-12	-6%	3	2.9	-4
O=C(O)c1cccc(-c2ccc(/C=N/Nc3ccc([N+](=O)[O-])cc3)o2)c1	nt	39%	53	-4.7	nt
COCCC(=O)N1CCC(Oc2ccc(C(=O)N(C)C3CCCCC3)cc2)CC1	nt	nt	3	0.6	nt
CCCS(=O)(=O)NCc1cn2cccc(C)c2n1	-38	1%	-5	-3.6	-1
Cc1ccc(-c2cc(C(F)F)nc(N3CCC(C)CC3)n2)cc1	-23	-2%	1	5.3	22	Arbovirus anti repeat=3
COc1ccc(S(=O)(=O)NCC2CCCN(C(=O)CSC)C2)cc1 (stereo unspecified)	nt	nt	-1	1.4	nt
COc1cc2sc3ccc(-c4ccc(N(C)C)nc4)cc3c(=O)c2cc1OC	nt	9%	-5	1.7	nt
O=[N+]([O-])c1cc(C(F)(F)F)ccc1NN=C1CCCC1	-9	8%	1	1.4	-8
Next compounds follow:
SMILES	YopH PTP inh	Mtb growth	Mtb betalactam	RecA splice inh	Arbovirus anti	others
O=C(/C=C/c1ccc(F)cc1)NC(=S)N1CCN(c2ccccn2)CC1	nt	-3%	3	-2.5	nt
O=C(NCCCl)Nc1ccc(Cl)c([N+](=O)[O-])c1	nt	6%	-5	0.1	6
CCc1ccc(C(=O)OCC(=O)NC2CCCC2)cc1	nt	nt	-1	-0.1	nt
O=C(Cc1ccccc1)c1nc2ccccc2s1	-22	7%	6	-2.2	-4
CC1CCN(C(=O)CSc2nc(=O)n3ccccc3n2)CC1	nt	nt	-7	-0.9	nt
COc1ccc(OC)c(NC(=O)c2cc3c(=O)n4ccccc4nc3n2C)c1	nt	5%	8	-2.1	8
CSc1cc(-c2ccccc2)n(Cc2c(Cl)cccc2Cl)c(=O)c1C#N	-19	2%	1	2.5	-13
COCCNC(=O)c1cccc(OC2CCN(Cc3ccc(C(=O)OC)cc3)CC2)c1	nt	nt	-4	-1.2	nt
Oc1ccc(Nc2nc(-c3ccccc3F)nc3ccccc23)cc1	nt	nt	12	4.1	nt
C#CCOCCOCCOCCNc1nc(N2CCN(C(=O)[C@H](Cc3ccc(O)cc3)n3cc([C@@H](N)CC(C)C)nn3)CC2)nc(N2CCN(C(=O)[C@H](Cc3cc4ccccc4[nH]3)n3cc([C@@H](N)CC(C)C)nn3)CC2)n1	nt	12µM*	99	0.5	-8
COc1ccc(N(C(=O)c2cccc(OC)c2OC)C2C=CS(=O)(=O)C2)cc1 (stereo unspecified)	-42	0%	-2	-1.5	3
COc1ccc(C2SCC(C(=O)O)N2C(C)=O)cc1 (stereo unspecified)	5	2%	-9	0.6	-7
COC(=O)c1c(C)oc2ccc(OC(=O)N3CCOCC3)cc12	-28	-6%	3	-1.3	2
CC(=O)Nc1ccc(S(=O)(=O)N2CCN(c3nnnn3-c3ccccc3)CC2)cc1	nt	-1%	0	-0.3	-4
Cc1cc(Cl)ccc1C(=O)C1CCCN(C(=O)c2cccc(N3CCCC3=O)c2)C1 (stereo unspecified)	nt	nt	3	0.9	nt
COC(=O)c1c(Oc2nc(OC)cc(OC)n2)cccc1Oc1nc(OC)cc(OC)n1	-4	-5%	-7	13	-2
CC(C(=O)c1ccc(Br)cc1)[n+]1cccc2ccccc21 (stereo unspecified)	nt	nt	9	-1.0	nt
